Assay outcomes deposited in PubChem BioAssay by several laboratories.
E coli growth – blocks Escherichia coli growth; AID 1053175; 330,000 tested, 0.21% active; OD600, 23 h; active compounds read low; OD600 absorbance (concentration not given with the values);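 active means OD600 absorbance below the run mean of sample wells minus 3.6 SD, in any replicate, cut at about 0.56 in these data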;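 further: stock transfer was 300 nL into about 60 µL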
ALR inh – human ALR oxidase inhibition via reduced H2O2; P55789; purified ALR, DTT oxidation, H2O2 HRP-luminol luminescence; inhibition, % (test concentration not listed); 290,000 tested, 3.8% active; AID 485317;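 active means mean and each replicate at 75% or more; inconclusive means only one of the two met; inactive means neither met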;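 further: stock transfer was 7.5 nL into about 7.5 µL; 0% = neutral wells and 100% = wells with inactivated enzyme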
Ecoli rRNA inh – selective bacterial rRNA inhibition in E. coli. E. coli WT GFP vs humanized-ribosome RFP mutants, fluorescence, 24 h; active compounds read low; DMSO median 0, no signal -100. GFP signal change (wild-type ribosome), % (no concentration beside the values). 350,000 tested, 1.6% active. AID 720706;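 active means significant combined selectivity score with lowered wild-type GFP, culture density cut under 30%, mutant RFP and density less affected; inactive means any of these conditions unmet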; further: one replicate is shown; some compounds called inactive have numbers as strong as hits
B2AR ag – activates human beta-2 adrenergic receptor causing internalization | P07550 | Am2.2-beta2AR cells, FAP receptor internalization, flow cytometry; reference of the scale not given here | response, % (test concentration not listed) | 340,000 tested, 0.43% active;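 active means response above a set limit, near 3 SD of response in nonfluorescent compounds, cut at about 42% in these data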;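 further: stock transfer was 100 nL into about 11 µL; a reference agonist was the positive control; negative values mostly stem from fluorescent compounds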
Target sequence (P07550 whole entry, looked up): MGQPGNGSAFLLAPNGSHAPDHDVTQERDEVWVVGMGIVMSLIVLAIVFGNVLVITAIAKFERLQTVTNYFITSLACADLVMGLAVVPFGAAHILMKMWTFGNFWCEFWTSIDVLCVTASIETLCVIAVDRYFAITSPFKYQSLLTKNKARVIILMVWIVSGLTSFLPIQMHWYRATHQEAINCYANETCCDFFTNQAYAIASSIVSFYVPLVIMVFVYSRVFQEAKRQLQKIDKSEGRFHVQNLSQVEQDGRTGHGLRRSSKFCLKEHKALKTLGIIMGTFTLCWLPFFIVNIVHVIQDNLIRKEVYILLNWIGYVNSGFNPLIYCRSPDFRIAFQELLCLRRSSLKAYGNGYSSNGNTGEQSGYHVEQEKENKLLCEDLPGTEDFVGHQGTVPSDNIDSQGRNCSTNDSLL
FGF22 binding – binders of recombinant human FGF22 by thermal shift | Q9HCT0 | SYPRO orange fluorescence; percent of sucrose octasulfate shift, DMSO zero | AID 651658 | calls only at 9.99 µM | 340,000 tested, 1.5% active;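 active means melting point raised past a set limit in the mean and every replicate; inconclusive means no clear call; three in four hits are not shown here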
HNF4A DNA FP – change in binding of human HNF4 alpha to DNA | P41235 | HNF4a-FITC DNA binding, fluorescence polarization, 1 h | activity change, % at 10 µM | 360,000 tested, 0.3% active | AID 1224865; in the data active means activity change above about 30%, passing the limit was not always enough;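 further: controls were the assay level and a saturating level of protein; the project sought stronger binding though the title names inhibitors; some compounds called inactive have numbers as strong as hits; positive values seem to mean higher polarization but the record does not say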
Target sequence (P41235 whole entry, looked up): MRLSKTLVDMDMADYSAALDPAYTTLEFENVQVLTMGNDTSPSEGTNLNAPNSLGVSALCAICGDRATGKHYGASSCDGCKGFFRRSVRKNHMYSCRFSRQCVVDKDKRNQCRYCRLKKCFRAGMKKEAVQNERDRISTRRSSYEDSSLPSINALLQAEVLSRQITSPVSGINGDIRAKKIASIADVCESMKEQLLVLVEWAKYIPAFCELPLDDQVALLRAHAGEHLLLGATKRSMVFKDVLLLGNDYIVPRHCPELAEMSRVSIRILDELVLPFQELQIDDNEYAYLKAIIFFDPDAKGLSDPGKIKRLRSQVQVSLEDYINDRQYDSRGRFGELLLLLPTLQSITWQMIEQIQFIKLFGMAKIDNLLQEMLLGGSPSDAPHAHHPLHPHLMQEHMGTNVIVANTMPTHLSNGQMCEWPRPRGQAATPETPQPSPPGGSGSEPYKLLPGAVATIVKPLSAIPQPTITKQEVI
UCH37 inh – inhibitors of human deubiquitinating enzyme UCH37; Q9Y5K5; purified proteasome/UCH37, Ub-AMC cleavage fluorescence; inhibition, % (no concentration beside the values); 330,000 tested, 0.33% active; AID 588478;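 active means mean of two replicates above 20%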;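 further: 0% = compound-free wells with enzyme and 100% = wells lacking proteasome; stock transfer was 100 nL into about 20 µL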
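assay system = human UCH37 enzyme supplied as purified proteasome complex | amount = proteasome at 0.15 nM in the dispensed enzyme solution | schedule = 30 min compound-proteasome preincubation then 25 min substrate reaction, room temperature | measured by = fluorescence, ex 355 nm, em 460 nm | benchmarks = no-proteasome wells (full inhibition) and compound-free wells (no inhibition)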
Ecoli rRNA inh OD600 – recorded beside Ecoli rRNA inh, whose call it bears; OD600 change, %; measured here: OD600 growth;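 optical density of the mix in the first replicate; 0 = DMSO median and -100 = no signal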
Ecoli rRNA inh RFP – second read-out of Ecoli rRNA inh, no call of its own (marks repeat the call); RFP signal change, %; measured here: RFP humanized mutant strains;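 first replicate; 0 = DMSO median and -100 = no signal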
Starred values were filed as active, the others as inactive; i = inactive; ? = inconclusive; nt = not tested or not shown. Only part of the results is shown; count on the stated rates, not on these rows.

#	structure	E coli growth	Ecoli rRNA inh RFP	UCH37 inh	FGF22 binding	Ecoli rRNA inh OD600	ALR inh	Ecoli rRNA inh	HNF4A DNA FP	B2AR ag
1	CCOc1ccc(C(C)=O)cc1CSc1nnnn1-c1ccc(O)cc1	0.7	11	3.7	i	-30	?	-15	0.7	5
2	CSCCC(NC(=O)COc1ccccc1)C(=O)N1CCN(C(C)=O)CC1 (stereo not drawn)	0.69	2.2	4.5	i	10	-2	10	0.4	0
3	O=C(Nc1ccc2[nH]c(=O)[nH]c2c1)c1c(F)c(F)c(F)c(F)c1F	0.72	2.9	-24	i	20	-4	21	0.9	-8
4	COc1ccc2nnc(-c3ccccc3)n2n1	0.7	nt	-15	nt	nt	-9	nt	0.7	12
5	O=C(NCC1CCCO1)C(c1cccnc1)N(C(=O)Cc1cccs1)c1ccccc1 (stereo not drawn)	0.7	4.8	5.5	i	10	-2	6	-0.7	1
6	Cn1c2ccccc2c(=O)c2ccc(Cl)cc21	nt	-2.6	nt	i	-47	nt	-19	2.3	nt
7	CCOc1ccc(NC(=O)C2=C(C)NC(=S)NC2c2ccc(O)c(OC)c2)cc1 (stereo not drawn)	nt	14	0.8	i	15	53	2	0.5	5
8	COc1cc(/C=C2\SC(=S)N(CC(=O)Nc3cccnc3)C2=O)cc(OC)c1OC	0.71	0.2	0.0	i	1	nt	-4	-1.1	4
9	Cc1cc(S(=O)(=O)Nc2c(C(=O)O)[nH]c3ccccc23)ccc1F	0.71	nt	4.2	nt	nt	nt	nt	0.5	0
10	COc1ccc(CC(=O)OCN2C(=O)c3ccccc3C2=O)cc1OC	0.72	-1.2	-0.2	i	3	6	2	1.6	-2
11	COc1ccc(S(=O)(=O)N2CCN(C(=O)CN3C(=O)NC4(CCCC4)C3=O)CC2)cc1	0.72	-4.6	-0.1	i	-5	-1	-1	-0.9	5
12	COc1cccc(N2CC(C(=O)Nc3nnc(SCc4ccccn4)s3)CC2=O)c1 (stereo not drawn)	0.61	nt	1.4	nt	nt	-5	nt	0.5	-3
13	Cc1oc2cc3oc(=O)c(CC(=O)N[C@@H](C)C(=O)NC(Cc4ccc(Cl)cc4)C(=O)O)c(C)c3cc2c1C (stereo partly drawn)	0.7	nt	-33	nt	nt	98*	nt	4.5	-3
14	CCC(C)NC(=O)c1[nH]c(C)c(C(=O)OC)c1C (stereo not drawn)	0.72	nt	2.4	nt	nt	-3	nt	0.6	-9
15	Cc1sccc1/C=N/NC(=O)c1cccc2ccccc12	nt	nt	nt	nt	nt	-1	nt	-6.2	0
16	Cc1c(Cl)cccc1NC(=O)CNc1cccc(C(F)(F)F)c1	0.68	14	-0.7	i	-22	-12	-18	-0.5	-7
17	Cc1cc(C)n(C(=O)CNC(=O)c2ccccc2F)n1	nt	-6.0	nt	i	2	-6	6	-0.5	1
18	COc1ccc2cc(C3=CCCC3(C)C(=O)O)ccc2c1 (stereo not drawn)	0.67	1.6	0.2	i	-13	nt	-8	1.0	2
19	O=C(CSc1nnc(-c2cnccn2)n1Cc1ccco1)Nc1ccc(Br)cc1	0.76	nt	0.6	nt	nt	-1	nt	1.6	-4
20	COc1ccc(F)cc1-c1cc(C(=O)Nc2ccc(NC(C)=O)cc2)[nH]n1	nt	-1.6	nt	i	3	nt	1	2.4	nt
21	Cc1noc(C)c1C(=O)OCC(=O)Nc1cc(S(=O)(=O)N2CCOCC2)ccc1Cl	0.66	nt	1.9	nt	nt	-7	nt	nt	nt
22	CC(C)Oc1ccc(S(=O)(=O)N2CCOCC2)cc1NC(=O)c1cc([N+](=O)[O-])ccc1N1CCOCC1	0.7	-1.5	6.5	i	-6	-6	8	-0.7	-1
23	CCN(CC)C(=O)Cn1cc(S(=O)(=O)CC(=O)NCCc2ccccc2)c2ccccc21	0.72	2.2	-0.3	i	1	-12	4	0.6	1
24	O=C1NC(=O)C2(COC(c3cccc([N+](=O)[O-])c3)OC2)S1 (stereo not drawn)	0.63	-1.1	2.4	i	0	3	4	1.4	-7
25	Cc1ccc(-n2c(SCC(N)=O)nnc2-c2cccnc2)c(C)c1	0.71	nt	4.7	nt	nt	-5	nt	7.2	1
26	C=CCSc1nc(N)c(NC(=O)c2ccco2)c(=O)[nH]1	0.75	-0.8	2.3	i	-13	-1	-3	7.6	9
27	O=C(c1cccc(S(=O)(=O)NCc2ccccc2)c1)N1CCN(c2cccc(C(F)(F)F)c2)CC1	0.75	1.7	1.1	i	-30	0	1	1.9	9
28	COC(=O)[C@]12CCCCC=C1N(Cc1ccc3c(c1)OCO3)C(=O)[C@H](CC(=O)NCc1cccs1)C2	nt	6.4	nt	i	-55	nt	-30	-0.3	nt
29	COc1ccc(-c2cc3onc(-c4c(Cl)cccc4Cl)c3c(=O)n2C)cc1	0.68	-16	1.6	i	-15	-20	-6	-1.1	9
30	C=C(C)CNC(=S)N/N=C(\C)c1ccc(-n2ccnc2)cc1	nt	nt	nt	nt	nt	4	nt	-1.4	0
31	COC(=O)C(CC(=O)Nc1cc(C)ccc1C)Nc1ccccc1OC (stereo not drawn)	0.72	nt	5.7	nt	nt	98*	nt	2.1	-5
32	Cn1c(=O)c2c(nc(-n3ccnc3)n2C)n(C)c1=O	0.75	nt	-4.0	nt	nt	0	nt	-1.9	-1
33	COc1cc(OC)cc(C(=O)O/N=C(\N)c2ccncc2)c1	0.67	4.0	-1.7	i	11	-1	5	-0.2	6
34	C[C@H]1COC(=O)[C@H](CC(=O)OC(C)(C)C)C/C=C\C[C@H](CC(=O)N(CCO)Cc2ccccc2)C(=O)N1	nt	-3.5	1.9	i	3	2	6	7.4	-2
35	O=C(Nc1nc2ccc(F)cc2s1)C1CCN(S(=O)(=O)c2cc([N+](=O)[O-])ccc2Cl)CC1	0.69	-13	3.2	i	-5	-35	-6	-11	-7
36	Cc1cc(C)cc(OC2CCCCC2NS(=O)(=O)c2ccccc2)c1 (stereo not drawn)	0.68	-1.1	1.6	i	-4	-21	0	3.7	3
37	COC(=O)c1ccc(-c2nc(CN3CCN(Cc4cccc(C)c4)CC3)c(C)o2)cc1	0.68	1.2	-8.9	i	-5	-24	-9	2.7	-1
38	O=C(NCc1ccc(F)cc1)C(C(=O)NCc1ccc(F)cc1)c1ncc(C(F)(F)F)cc1Cl	0.63	0.1	6.0	i	8	-5	-1	4.1	-7
39	CCN(CCNC(=O)C1CCN(Cc2nc(-c3cccc(Cl)c3)oc2C)CC1)c1ccccc1	0.64	nt	1.5	nt	nt	99*	nt	-1.6	12
40	CCC(C(=O)Nc1cccnc1Cl)c1ccccc1 (stereo not drawn)	0.64	7.3	1.7	i	4	-14	2	0.9	-4
41	CC(C)(C)c1ccc(NC(=S)NCc2cccnc2)cc1	0.58	-6.0*	3.1	i	-10*	3	-22*	-3.0	2
42	O=C(CSc1nc2ccccc2n1CCc1ccccc1)NC1CCS(=O)(=O)C1 (stereo not drawn)	0.7	nt	-0.8	nt	nt	-4	nt	-1.5	-7
43	O=C(CN1CCN(c2ccccc2F)CC1)NC(=O)NCc1ccco1	0.67	3.7	3.8	i	-1	nt	2	1.1	1
44	NC(=O)c1c(NC(=O)c2ccccc2)sc2c1CCC2	0.71	6.6	-6.6	i	0	49	-1	-2.8	-2
45	O=S(=O)(NCc1ccccc1)NCc1ccc(Cl)cc1Cl	0.67	6.2	4.4	i	-55	-12	-28	-2.1	-3
46	Cn1cnnc1SCC(=O)N1N=C(c2ccc(Cl)cc2)CC1c1ccco1 (stereo not drawn)	0.69	1.8	0.7	i	11	-1	23	-0.5	-7
47	O=C(COC(=O)CCS(=O)(=O)c1ccc(Cl)cc1)NC1CCCCC1	0.77	nt	-0.6	nt	nt	3	nt	3.2	-4
48	COc1ccccc1NC(=O)Nc1nc(CC(=O)N2CCN(c3ccc(F)cc3)CC2)cs1	0.71	-1.4	4.2	i	-11	nt	-12	4.6	10
49	N#CCC(=O)N/N=C/c1cn(Cc2cccc3ccccc23)c2ccccc12	nt	0.5	nt	i	6	-3	8	2.9	8
50	C=CCn1c2ccccc2c(=O)c2cc(C#Cc3cc(OC)cc(OC)c3)ccc21	0.76	-9.9	-55	i	-1	3	-6	0.9	3

The results go on:
#	structure	E coli growth	Ecoli rRNA inh RFP	UCH37 inh	FGF22 binding	Ecoli rRNA inh OD600	ALR inh	Ecoli rRNA inh	HNF4A DNA FP	B2AR ag
51	O=C(NCC1CCCO1)C1CC(c2ccccc2Cl)=NO1 (stereo not drawn)	0.65	nt	-0.4	nt	nt	-1	nt	0.3	-1
52	Cc1cc(O)cc(=O)n1C	0.69	-24	0.8	nt	-80	-12	-53	0.4	0
53	O=C(Cc1ccccc1)NCc1cccnc1	0.73	0.3	3.6	i	5	-4	13	4.4	-2
54	COc1ccc(CNCCCNCc2ccc(OC)c(OC)c2)cc1OC	0.67	-1.0	-1.9	i	10	nt	7	1.0	-1
55	O=S1(=O)N[C@@H](Cc2ccccc2)COc2cccc(N3CCSCC3)c21	nt	7.3	nt	i	-42	nt	-18	-1.4	nt
56	COc1ccc(CCNC(=O)CN2C(=O)NC(CCSC)C2=O)cc1 (stereo not drawn)	0.7	2.4	1.0	i	10	0	17	-0.1	-7
57	CCOC(=O)c1c(-c2ccccc2)cn2ccccc12	0.79	nt	-161	nt	nt	nt	nt	2.0	-1
58	Cc1cc(=O)n2nc(N3CCC(C(=O)NCc4ccccc4)CC3)sc2n1	0.61	-1.8	2.4	i	6	4	5	4.0	5
59	O=C(Nc1ccncc1)c1ccc(Cl)c(S(=O)(=O)N2CCc3ccccc32)c1	0.57	-1.2	2.7	nt	-66	-5	-45	1.8	12
60	Cc1nn(-c2ccccc2)nc1C(=O)Nc1cccc(C(=O)NC2CC2)c1	nt	-1.3	nt	i	0	nt	-3	2.4	nt
61	CCc1cc(=O)oc2c(C)c(OC(C)C(=O)NCCCN3CCOCC3)ccc12 (stereo not drawn)	0.68	-0.5	-9.9	nt	2	-1	0	-2.1	-2
62	COc1ccc(C(=O)Nc2nnc(S(=O)(=O)N3CCC(C)CC3)s2)cc1OC	0.71	-4.5	-0.5	i	7	-1	-2	2.5	-4
63	COc1ccc(CNc2oc(C)nc2C#N)cc1	0.74	nt	-1.5	nt	nt	25	nt	0.7	-1
